Vaccinia inh: blocks a specific stage of Vaccinia orthopoxvirus infection | Vaccinia-infected cells, mCherry/Venus stage reporter fluorescence; active compounds read low; some inactives read as strong as hits | activity change (mCherry), % (test concentration not listed) | 89,000 compounds, 0.01% hits | AID 1053133;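 active = mCherry past -33% and 40 or more points under the early reporter, replicates agreeing; inconclusive = past -33% without that gap or agreement; tested in A549 cells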;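 also: scaled between vehicle wells and reference inhibitor wells; 23 nL library stock went into each well; one replicate is shown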
Vaccinia inh Venus: further read-out of Vaccinia inh, marked with its call; activity change (Venus), %; measured here: Venus reporter, other viral stage;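 negative = less Venus signal; first of two replicates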
* hit, by the source's call; ? = inconclusive; / = no result given.

Compound	Vaccinia inh	Vaccinia inh Venus
N#C[C@H]1[C@@H](c2ccc(C3=CCCC3)cc2)[C@@H](CO)N1C(=O)Nc1ccccc1F	22.5	8.2
CCS(=O)(=O)Nc1ccc2c(c1)C(=O)N(C)[C@@H]1CC[C@@H](CC(=O)NCCOC)O[C@H]1CO2	5.3	5.0
O=C(C[C@@H]1C[C@H]2c3cc(NS(=O)(=O)c4ccc(F)cc4)ccc3O[C@H]2[C@H](CO)O1)NCc1cccc(F)c1	-16.6	-10.5
CO[C@H]1CN(C)C(=O)c2cc(NC(=O)NC(C)C)ccc2OC[C@@H](C)N(Cc2ccc(-c3ccccn3)cc2)C[C@@H]1C	-23.9	-18.5
C[C@@H]1CN([C@H](C)CO)C(=O)Cc2cc(NS(C)(=O)=O)ccc2O[C@@H]1CN(C)S(=O)(=O)c1cccs1	7.3	1.3
CO[C@@H]1CN(C)C(=O)c2cc(NC(=O)NC(C)C)ccc2OC[C@@H](C)N(CC2CC2)C[C@H]1C	1.4	4.9
CCS(=O)(=O)Nc1ccc2c(c1)C(=O)N(C)[C@H]1CC[C@@H](CC(=O)NCc3ccc(OC)cc3)O[C@@H]1CO2	11.7	7.6
Cc1ccc(S(=O)(=O)Nc2ccc3c(c2)CC(=O)N([C@@H](C)CO)C[C@@H](C)[C@@H](CN(C)Cc2ccccc2)O3)cc1	-14.3	-14.7
CCCC#Cc1ccc([C@@H]2[C@@H](C#N)N(C(=O)C3CC3)[C@@H]2CO)cc1	4.6	15.4
CC(C)NC(=O)N1CC2(C1)[C@@H](c1ccccc1)[C@@H](CO)N2CCC(F)(F)F	21.8	18.5
CO[C@@H]1CN(C)C(=O)c2cc(NC(=O)C3CC3)ccc2OC[C@H](C)N(C(=O)C2CCOCC2)C[C@H]1C	8.2	7.6
CN1C[C@H]2[C@@H](c3ccccc31)[C@@H](CO)N2S(=O)(=O)c1ccccc1	10.3	7.7
CNC[C@H]1OCCCC[C@@H](C)Oc2ccc(NS(=O)(=O)c3ccc(C)cc3)cc2C(=O)N([C@H](C)CO)C[C@@H]1C	-1.5	3.5
C[C@@H]1CN([C@H](C)CO)C(=O)c2cc(NC(=O)Nc3ccc(F)cc3)ccc2O[C@@H]1CN(C)Cc1ccc(-c2ccccc2)cc1	?	/
COC(=O)C[C@@H]1C=C[C@@H](NC(=O)Nc2ccc(C(F)(F)F)cc2)[C@H](CO)O1	1.3	10.8
COc1ccc(S(=O)(=O)N(C)C[C@H]2OCc3cn(nn3)CCCC(=O)N([C@@H](C)CO)C[C@@H]2C)cc1	6.8	-0.7
Cc1noc(C)c1S(=O)(=O)N(C)C[C@@H]1OCCCC[C@H](C)Oc2ccc(NC(=O)Nc3ccc(F)cc3)cc2C(=O)N([C@H](C)CO)C[C@H]1C	-1.1	6.4
C[C@@H]1CN([C@H](C)CO)C(=O)c2c(c3ccccc3n2C)-c2ccccc2CO[C@H]1CN(C)S(=O)(=O)c1cccc(C#N)c1	3.2	1.4
CCCN1C[C@H](C)[C@H](OC)CN(C)C(=O)c2ccc(NS(C)(=O)=O)cc2OC[C@H]1C	14.3	12.9
COCC#Cc1cnc2c(c1)C(=O)N([C@@H](C)CO)C[C@H](C)[C@@H](CN(C)S(=O)(=O)c1cccc(OC)c1)O2	2.7	-2.1
CC(C)[C@H]1COCc2cn(nn2)CC[C@@H](Cc2ccccc2)C(=O)N1	7.4	4.8
C[C@H]1CCCCO[C@H](CN(C)CC2CCCCC2)[C@@H](C)CN([C@@H](C)CO)C(=O)c2cc(NC(=O)c3ccccc3)ccc2O1	?	/
COc1ccc2c3c(n(C)c2c1)[C@@H](CO)N(C(=O)CN(C)C)CC31CN(S(C)(=O)=O)C1	16.5	4.7
C[C@H](CO)N1C[C@H](C)[C@@H](CN(C)C(=O)Cc2ccccc2)OCCCC[C@H](C)Oc2ccc(NS(=O)(=O)c3cccs3)cc2C1=O	-5.8	-7.5
C[C@@H]1CCCCO[C@@H](CN(C)S(=O)(=O)c2ccccc2)[C@@H](C)CN([C@H](C)CO)C(=O)c2cc(NS(=O)(=O)c3cccs3)ccc2O1	13.7	6.2
CN(C)C(=O)C[C@H]1C=C[C@H](NC(=O)C2CCOCC2)[C@H](CO)O1	-1.4	-2.5
COc1ccc(S(=O)(=O)N[C@H]2CC[C@@H](CC(=O)N3CCN(c4ccccc4)CC3)O[C@H]2CO)cc1	-5.3	2.7
CCCC(=O)Nc1ccc2c(c1)OC[C@H](C)N(Cc1ccccc1F)C[C@H](C)[C@@H](OC)CN(C)C2=O	-25.4	-16.2
COc1ccc(CN(C)C[C@@H]2Oc3ccc(NC(=O)C4CCCCC4)cc3CC(=O)N([C@H](C)CO)C[C@H]2C)cc1	-17.3	1.0
CCN(C[C@@H]1N[C@H](CO)[C@H]1c1ccc(-c2ccc(F)cc2)cc1)C(=O)COC	-31.4	-16.4
OC[C@H]1[C@H](c2ccc(-c3cccnc3)cc2)[C@@H]2CN(CC3CC3)CCCCN12	0.3	-4.4
CC(=O)NC[C@H]1[C@@H](c2ccccc2)[C@H](CO)N1C(=O)Cc1cccnc1	22.6	19.6
CC(C)CC#Cc1ccc2c(c1)O[C@H](CN(C)C(=O)Nc1ccccc1)[C@@H](C)CN([C@H](C)CO)S2(=O)=O	?	-18.6
C[C@@H]1CN([C@@H](C)CO)C(=O)c2cc(NS(C)(=O)=O)ccc2O[C@@H](C)CCCCO[C@@H]1CN(C)S(=O)(=O)c1cccs1	18.1	12.0
O=C(C1CCCCC1)N1[C@H](CO)[C@@H]2c3ccccc3NC[C@@H]21	-6.1	-8.2
COc1ccc(S(=O)(=O)N(C)C[C@H]2OCCCC[C@@H](C)Oc3ccc(NS(=O)(=O)c4ccc(C)cc4)cc3C(=O)N([C@@H](C)CO)C[C@H]2C)cc1	-25.2	-12.8
O=C(C[C@H]1C[C@@H]2c3cc(NC(=O)NC4CCCC4)ccc3O[C@@H]2[C@H](CO)O1)NC1CCCCC1	14.5	6.8
Cc1ccccc1S(=O)(=O)N[C@H]1CC[C@@H](CCn2cc(-c3ccccc3)nn2)O[C@@H]1CO	-14.9	-11.0
C[C@@H]1CN([C@@H](C)CO)C(=O)c2cc(C#Cc3ccccc3)cnc2O[C@H]1CN(C)C(=O)c1ccccc1F	?	-22.2
O=C(Nc1ccc(C(F)(F)F)cc1)N[C@H]1C=C[C@@H](CC(=O)N2CCCCC2)O[C@@H]1CO	6.7	9.7
COCC(=O)Nc1ccc2c(c1)OC[C@H](C)N(C(=O)NC(C)C)C[C@H](C)[C@@H](OC)CN(C)C2=O	5.6	12.5
COc1cccc(S(=O)(=O)N[C@H]2CC[C@@H](CCn3cc(-c4ccccc4)nn3)O[C@@H]2CO)c1	-10.7	-2.0
CCC(=O)N1CC(=O)N2[C@H](CO)[C@@H](c3ccc(C#CC4CCCC4)cc3)[C@H]2C1	-8.4	-11.2
C[C@@H]1CCCCO[C@H](CN(C)S(=O)(=O)c2ccc(Cl)cc2)[C@@H](C)CN([C@@H](C)CO)C(=O)c2cc(NS(=O)(=O)c3ccc(Cl)cc3)ccc2O1	-13.3	-7.2
COc1ccc(CN(C)C[C@@H]2Oc3c(NC(=O)c4ccncc4)cccc3C(=O)N([C@@H](C)CO)C[C@H]2C)cc1	11.8	11.5
O=S(=O)(N[C@@H]1CC[C@H](CCn2cc(C3CC3)nn2)O[C@H]1CO)c1ccc(Cl)cc1	-1.6	-2.5
CCS(=O)(=O)N1CCCCN2[C@H](CO)[C@H](c3ccc(-c4ccccc4F)cc3)[C@H]2C1	-6.0	-4.1
C[C@@H]1CN([C@H](C)CO)C(=O)c2cc(NC(=O)CCC(F)(F)F)ccc2O[C@H]1CN(C)Cc1ccccc1	0.3	-0.9
C[C@@H]1CN([C@@H](C)CO)C(=O)Cc2cc(NC(=O)Nc3ccc(C(F)(F)F)cc3)ccc2O[C@@H]1CN(C)S(=O)(=O)c1ccccc1	-18.9	-2.6
CO[C@@H](CN(C)CC1CCOCC1)[C@H](C)CN(C(=O)Nc1ccc(F)cc1)[C@@H](C)CO	5.7	2.6
CCCNC(=O)[C@@H]1[C@@H](CO)[C@@H]2Cn3c(ccc(C4=CCCC4)c3=O)[C@@H]2N1C(=O)CC	1.5	13.8
COc1cccc(-c2ccc3c(c2)[C@H]2[C@H](CCN2C(=O)NC2CCCCC2)[C@H](CO)N3C)c1	?	/
O=C(Nc1ccc2c(c1)OCO2)N[C@@H]1CC[C@H](CCNC(=O)C2CCC2)O[C@H]1CO	9.2	19.4
O=C(C1CCC1)N1CC(=O)N2[C@H](CO)[C@@H](c3ccc(-c4cccnc4)cc3)[C@@H]2C1	10.1	3.5
COCC(=O)N1[C@H](C(=O)N2CCN(C)CC2)[C@@H](CO)[C@@H]2Cn3c(ccc(C4=CCCC4)c3=O)[C@@H]21	6.6	-0.2
CN(C[C@H]1[C@H](c2ccccc2)[C@@H](CO)N1C(=O)c1ccccc1)C(=O)C1CC1	10.5	17.3
COCC(=O)Nc1ccc2c(c1)[C@H]1C[C@@H](CC(=O)N3CCOCC3)O[C@H](CO)[C@H]1O2	6.8	19.2
O=C(Nc1nccs1)[C@@H]1[C@@H](CO)[C@@H]2Cn3c(cccc3=O)[C@H]1N2C(=O)C1CCCCC1	-7.2	-4.9
CCCNC(=O)C[C@H]1CC[C@H]2[C@H](COc3ccc(NC(=O)c4cc(C)on4)cc3C(=O)N2C)O1	4.0	5.1
CNC[C@@H]1Oc2ccc(NS(=O)(=O)c3ccc(OC)cc3)cc2C(=O)N([C@H](C)CO)C[C@@H]1C	13.3	9.6

Next compounds
Compound	Vaccinia inh	Vaccinia inh Venus
CCCN1C[C@@H](C)[C@@H](OC)CN(C)C(=O)c2ccc(NC(=O)C3CC3)cc2OC[C@H]1C	2.9	-0.3
C[C@@H]1CN([C@H](C)CO)C(=O)Cc2cc(NC(=O)c3ccncc3)ccc2O[C@H]1CN(C)Cc1ccc(C(=O)Nc2ccccc2N)cc1	6.9	3.4
COCC(=O)Nc1ccc2c(c1)OC[C@H](C)N(CCC(F)(F)F)C[C@@H](C)[C@H](OC)CN(C)C2=O	11.8	9.9
COc1ccc(NC(=O)N[C@H]2CC[C@@H](CC(=O)NC3CCCCC3)O[C@H]2CO)cc1	-2.1	6.7
C[C@@H]1CN([C@@H](C)CO)C(=O)c2cc(C#CCN(C)C)cnc2O[C@@H]1CN(C)Cc1ccc(F)cc1	7.1	6.5
Cc1ccc(S(=O)(=O)Nc2ccc3c(c2)C(=O)N([C@@H](C)CO)C[C@@H](C)[C@H](CN(C)CC2CCCCC2)OCCCC[C@H](C)O3)cc1	?	/
Cc1ccc(S(=O)(=O)Nc2cccc3c2O[C@H](CN(C)S(=O)(=O)c2ccc(C)cc2)[C@@H](C)CN([C@H](C)CO)C3=O)cc1	4.7	5.0
CCOC(=O)c1cc2c(c(-c3cccc(-c4cccc(F)c4)c3)n1)[C@H](CCO)N(S(=O)C(C)(C)C)C2 (some centres undefined)	-5.4	2.8
CC=Cc1ccc2n(c1=O)C[C@@H]1[C@@H](CO)[C@H](C(=O)Nc3ccccc3)N(CC3CCCC3)[C@H]21 (mixture of isomers)	9.8	23.3
C[C@H]1CN([C@@H](C)CO)C(=O)CCCn2cc(nn2)CO[C@H]1CN(C)S(=O)(=O)c1ccccc1C#N	11.9	8.7
COc1ccc2c3c([nH]c2c1)[C@@H](CO)N(Cc1cc(F)ccc1F)CC31CN(C(C)=O)C1	6.5	11.4
O=C(C[C@@H]1CC[C@H](NC(=O)c2cnccn2)[C@@H](CO)O1)NCc1ccccc1F	7.4	12.7
CC(C)C#Cc1ccc2c(c1)O[C@H](CN(C)C(=O)Cc1ccccn1)[C@H](C)CN([C@@H](C)CO)S2(=O)=O	-3.9	-9.1
CC(=O)N(C)C[C@H]1Oc2cc(C#Cc3ccccc3)ccc2S(=O)(=O)N([C@H](C)CO)C[C@@H]1C	-29.5	-24.0
CC(C)NC(=O)N(C)C[C@H]1OCCCC[C@H](C)Oc2ccc(NS(=O)(=O)c3cn(C)cn3)cc2C(=O)N([C@@H](C)CO)C[C@@H]1C	40.2	30.8

Some of the entries above in another layout:
Value order – Vaccinia inh	Vaccinia inh Venus
Cc1ccc(S(=O)(=O)Nc2ccc3c(c2)C(=O)N([C@@H](C)CO)C[C@@H](C)[C@H](CN(C)CC2CCCCC2)OCCCC[C@H](C)O3)cc1
  ?	/
Cc1ccc(S(=O)(=O)Nc2cccc3c2O[C@H](CN(C)S(=O)(=O)c2ccc(C)cc2)[C@@H](C)CN([C@H](C)CO)C3=O)cc1
  4.7	5.0
CCOC(=O)c1cc2c(c(-c3cccc(-c4cccc(F)c4)c3)n1)[C@H](CCO)N(S(=O)C(C)(C)C)C2 (some centres undefined)
  -5.4	2.8
CC=Cc1ccc2n(c1=O)C[C@@H]1[C@@H](CO)[C@H](C(=O)Nc3ccccc3)N(CC3CCCC3)[C@H]21 (mixture of isomers)
  9.8	23.3

Next compounds.
Compound	Vaccinia inh	Vaccinia inh Venus
COc1ccc(S(=O)(=O)Nc2ccc3c(c2)C(=O)N([C@@H](C)CO)C[C@@H](C)[C@@H](CN(C)C(=O)Nc2ccc(F)cc2)O3)cc1	11.2	2.4
C[C@H]1CN([C@@H](C)CO)C(=O)c2cccc(NC(=O)NC3CCCCC3)c2O[C@@H]1CN(C)C(=O)Nc1ccc(F)cc1	2.6	3.1
COc1ccc2c3c([nH]c2c1)[C@@H](CO)N(C(=O)c1ccncc1)CC31CN(C(=O)Nc2cccc(F)c2)C1	9.4	2.1
Cc1noc(C)c1NC(=O)N(C)C[C@@H]1Oc2ccc(NC(=O)Nc3ccc4c(c3)OCO4)cc2CC(=O)N([C@H](C)CO)C[C@H]1C	1.3	5.6
C[C@H]1CN([C@@H](C)CO)C(=O)c2cc(-c3cccc(F)c3)cnc2O[C@@H]1CN(C)C	9.5	5.4

Not all compounds are listed; rates above refer to the full screens.
